HPGD block: qHTS Assay for Inhibitors of HPGD (15-Hydroxyprostaglandin Dehydrogenase). 15-hydroxyprostaglandin dehydrogenase [NAD(+)] (Homo sapiens), P15428. Potency, µM, for inactives: top-dose activity change, negative = inhibition, most hits filed as inhibitors. purified HPGD, NADH fluorescence kinetic, PGE2 substrate. hit rate 4.3% among 150,000; active = well fitted inhibition curve with a large enough effect (not every such curve was filed as active); inconclusive = small, poorly fitted or top-dose-only effect, or another doubt; inactive = no such curve, though single readings can be large or run the other way;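 further: top concentration of the series not given in the record; plate controls included wells without enzyme; inactives centre near -10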
Target sequence (P15428 whole entry, looked up): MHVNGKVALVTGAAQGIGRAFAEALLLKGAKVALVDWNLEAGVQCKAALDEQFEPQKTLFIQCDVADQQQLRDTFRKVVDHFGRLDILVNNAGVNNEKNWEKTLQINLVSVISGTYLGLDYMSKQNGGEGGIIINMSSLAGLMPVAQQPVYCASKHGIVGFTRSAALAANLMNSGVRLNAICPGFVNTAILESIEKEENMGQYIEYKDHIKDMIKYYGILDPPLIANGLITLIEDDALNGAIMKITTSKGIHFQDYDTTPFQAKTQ
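NADH formation kinetics: reaction with 30 uM PGE2 and 1 mM NAD+ (final), 20 nM enzyme, Tris-HCl pH 8 with Tween 20, after 15 min compound preincubation at room temperature. Fluorescence change, last versus first of five reads.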
* marks the source's active call; other numbers are inactive results; u = inconclusive. On the % scale 0 is the no-effect control and ±100 the full control effect; potency means the concentration at half of the fitted maximal effect.

molecule | HPGD block
CCNC(=S)N/N=C/c1c(C)nn(-c2cccc(Cl)c2)c1Cl | -5.0%
Cc1nc(NCCN2CCOCC2)c2nnn(Cc3ccccc3Cl)c2n1 | -12.1%
O=C(c1cccc(Br)c1)N1CCN(C(=O)N2CCOCC2)CC1 | -1.6%
CCn1c(-c2cc(-c3cc(OC)ccc3OC)nc3ccccc23)n[nH]c1=S | u
COc1ccc(CCNc2cc(C)nc3c(-c4ccccc4)c(C)nn23)cc1OC | u
CCSc1nnc(NC(=O)c2nc(-c3ccccc3)n(-c3ccccc3)n2)s1 | -18.9%
CCN(CC)C(=O)C1CCC(C)(C(=O)O)C1(C)C (centres undefined) | -1.4%
CNc1ncc(C(=O)c2ccc(Cl)c(Cl)c2)s1 | -16.0%
NS(=O)(=O)c1ccc(CCNC(=O)C(=O)c2c[nH]c3ccccc23)cc1 | -6.3%
C/C(=N/NC(=O)c1ccc(Cl)s1)c1ccc(NC(=O)COc2ccc(Cl)cc2)cc1 | u

Next part (2 carried over from the part before).
molecule | HPGD block
NS(=O)(=O)c1ccc(CCNC(=O)C(=O)c2c[nH]c3ccccc23)cc1 | -6.3%
C/C(=N/NC(=O)c1ccc(Cl)s1)c1ccc(NC(=O)COc2ccc(Cl)cc2)cc1 | u
Cc1nnc(NCc2ccncc2)c2ccccc12 | -21.6%
Cc1ccc(C(=O)c2c(NC(=O)c3ccccc3)sc(C)c2C)cc1 | 14.1µM*
CC(=O)C1(C)CC2=C(CCCC2(C)C)CC1C (centres undefined) | -12.1%
CCC(C)NC(=O)CSc1ccc(NC(C)=O)cc1 (centres undefined) | -3.8%
Cc1cc(CN2CCOCC2)c(O)c(C2(C)CCCCC2)c1 | 2.6%
O=c1c2c([nH]c3ccccc13)CCCCCC2 | -26.1%
Cc1ccc(NC(=O)NNC(=O)C2CC(c3cccnc3)=NO2)cc1 (centres undefined) | -20.9%
COc1ccc(NC(=O)N2CCN(c3cccc(C(F)(F)F)c3)CC2)cc1OC | -6.0%
Cc1ccc(-c2nn(-c3ccccc3)cc2CO)o1 | u
COc1cc(OC)c(C2C(C#N)=C(N)OC3=C2C(=O)CC(C)(C)C3)cc1OC (centres undefined) | -21.9%

Other compounds.
molecule | HPGD block
O=C(CCN1CCN(CC(=O)Nc2ccccc2F)CC1)Nc1ccccc1F | -0.5%
Cc1cc(OC2CCCCC2)nc(-c2ccccc2O)n1 | -13.1%
CCOc1ccc(NC2=C(Cl)C(=O)N(C3CCCCC3)C2=O)cc1 | -5.5%
Cc1ccc(OCCCSc2ncccn2)cc1C | -4.8%
Cc1ccc(-n2ncc(-c3nnc(SCC(=O)NC4CCCC4)o3)c2N)cc1C | -22.8%
COC(=O)/C(=N/Nc1ccccc1C)Sc1nnc(C(O)c2ccccc2)n1-c1ccccc1 (centres undefined) | 31.6µM*
CCn1c(Cc2ccccc2)nnc1SCC(=O)Nc1nccs1 | -10.6%
CN(C)c1cccc(NC(=O)Cc2ccc(F)cc2)c1 | -8.7%
Nc1nc2c(c3c1c(=O)oc1ccccc13)CCCCC2 | u
COc1c(Cl)cc(C(=O)Nc2ccc(Cl)cn2)cc1Cl | -14.2%

Seven of the entries above in order of the HPGD block value, falling.
SMILES,HPGD block
O=C(CCN1CCN(CC(=O)Nc2ccccc2F)CC1)Nc1ccccc1F,-0.5%
Cc1ccc(OCCCSc2ncccn2)cc1C,-4.8%
CCOc1ccc(NC2=C(Cl)C(=O)N(C3CCCCC3)C2=O)cc1,-5.5%
CN(C)c1cccc(NC(=O)Cc2ccc(F)cc2)c1,-8.7%
Cc1cc(OC2CCCCC2)nc(-c2ccccc2O)n1,-13.1%
COc1c(Cl)cc(C(=O)Nc2ccc(Cl)cn2)cc1Cl,-14.2%
Cc1ccc(-n2ncc(-c3nnc(SCC(=O)NC4CCCC4)o3)c2N)cc1C,-22.8%

(continued)
molecule | HPGD block
CC1CCc2nc3ccccc3c(C(=O)OCC(=O)N3CCc4ccccc43)c2C1 (centres undefined) | u
CCCOc1ccc(Cc2c(Cl)nc(SC)nc2OC)cc1 | -17.2%
CC/C(=N\NC(=O)c1c[nH]c2ccccc12)c1cccs1 | -21.6%
O=C(COc1ccc([N+](=O)[O-])cc1)Nc1ccc(C(=O)NCc2cccnc2)cc1 | -3.4%
CC(C)c1ccc2occ(-c3nn[nH]n3)c(=O)c2c1 | -15.9%
C1=CC2CC1CC2CN1CCN(Cc2ccccc2)CC1 (centres undefined) | -6.1%
CCN(CC(=O)NC1CCCCC1)S(=O)(=O)c1ccc(Cl)cc1 | -2.0%
CCCCN1C(=O)/C(=C/C=C2\N(C)c3ccccc3C2(C)C)SC1=S | -8.6%
CCOc1ccc(/C=C2/SC(=S)N(n3c(C)ccc3C)C2=O)cc1 | -4.4%
Cc1ccc(CNc2nc3ccccc3n3cnnc23)cc1 | -25.9%

Next part
molecule | HPGD block
Cc1cc(C)n2nc(C(=O)NCc3ccccc3)cc2n1 | u
O=C(c1ccc(F)cc1)N1CCN=C1c1ccccc1 | -5.8%
Cc1ccc2occ(CN3CCN(Cc4ccccc4)CC3)c(=O)c2c1 | -7.3%
CC1=C(C#N)C(NC(=O)c2ccc(Cl)cc2)(C(F)(F)F)C(=O)N1 (centres undefined) | -2.5%
CC(=O)Nc1c(S(=O)(=O)c2ccccc2)c2nc3ccccc3nc2n1Cc1ccccc1 | u
Cc1nc2c(C(=O)NCc3ccccc3Cl)c[nH]n2c(=O)c1Cl | u
COc1ccc(C(c2nnnn2Cc2cccs2)N2CCN(c3ccccc3F)CC2)cc1 (centres undefined) | -14.4%
CCN1CCN(C(=O)C2CCN(Cc3cc(Cl)ccc3O)CC2)CC1 | 0.8%
FC(F)(F)C1=CC(c2ccccc2)=NCCN1 | -21.5%
CCS(=O)(=O)c1ccc2oc(SCC(=O)N3c4ccccc4CC3C)nc2c1 (centres undefined) | -21.8%

Next section.
molecule | HPGD block
O=c1c2c(C(F)(F)F)cc(C(F)(F)F)nc2[nH]n1-c1ccccc1 | -11.8%
O=C1CCC(=O)N1c1nc2n(n1)C(c1ccccc1)C=C(c1ccc(Br)cc1)N2 (centres undefined) | u
CCOC(=O)c1ccccc1NS(=O)(=O)c1ccccc1 | -7.3%
CCOC(=O)CCSc1nc(C)c2cc(C)ccc2n1 | 20µM*
COCc1[nH]nc2c1C(c1c(F)cccc1Cl)C(C#N)=C(N)O2 (centres undefined) | -5.2%
Cn1c(SCc2n[nH]c(=S)o2)nnc1-c1ccccc1 | -7.4%
Cn1c(=O)n(Cc2ccc(Cl)cc2)c(=O)c2c1nc1n2CCN1Cc1ccco1 | -4.5%
CCOC(=O)c1cccnc1SCC(=O)NCc1ccccc1 | -26.8%
O=C(c1cc(-c2cccs2)on1)N1CCN(c2ccccc2)CC1 | -4.7%
Cc1cc(C(=O)Nc2sc3c(c2C#N)CCC(C(C)(C)C)C3)no1 (centres undefined) | u

(next part)
molecule | HPGD block
COC(=O)c1cn(-c2ccccc2)c(C)c1C(=O)OC | 5.3%
CC(C)N(CC(N)=O)C(=O)Cc1coc2cc3c(cc12)CCC3 | -10.8%
O=C(Nn1cnnc1)C1CCCN1S(=O)(=O)c1ccc(F)cc1 (centres undefined) | -1.8%
CC(C)(C)NS(=O)(=O)c1cccc(S(=O)(=O)c2cccc(S(=O)(=O)NC(C)(C)C)c2)c1 | 20µM*
COC(=O)CNc1nc(-c2ccncc2)nc2ccccc12 | -11.7%
O=C(NC1CCS(=O)(=O)C1)/C(=C/c1ccc(Cl)cc1)NC(=O)c1ccccc1 (centres undefined) | -1.4%
COc1ccc(CCNS(=O)(=O)c2ccc3c(c2)CC(C)N3C(C)=O)cc1OC (centres undefined) | -2.0%
O=C1[C@@H]2C(c3ccccc3Cl)=NO[C@@H]2C(=O)N1Cc1ccccc1 | -14.4%
CC1CCCCN1Cc1nc2ccccc2c(=O)[nH]1 (centres undefined) | -2.0%
Cc1ccc(NC(=O)COC(=O)CCc2c[nH]c(=O)[nH]2)cc1 | -19.4%

The results go on.
| SMILES | HPGD block |
| --- | --- |
| CCNC(=S)N1CCN(c2ncccn2)CC1 | -0.6% |
| Oc1ccc(CN2CCN(c3ccccc3)CC2)c2cccnc12 | -12.8% |
| N#Cc1c(-c2cccs2)nc(SCC(=O)c2cccs2)[nH]c1=O | 15.8µM* |
| CC1C/C(=N\Nc2ccc(S(N)(=O)=O)cc2[N+](=O)[O-])CC(C)(C)C1 (centres undefined) | -20.7% |
| Cc1cc(C)c(C(N)=O)c(NC(=O)Nc2ccccc2Cl)n1 | -0.7% |
| COc1ccc(OC)c(C(=O)c2ccc(C(=O)Nc3ccc4ccccc4c3)cc2)c1 | -9.7% |
| O=C(Cc1cccs1)Nc1nc2ccccc2s1 | -5.2% |
| COC(=O)C1=C(C)OC(N)=C(C#N)C1c1c(C)nn(-c2ccccc2)c1Cl (centres undefined) | u |
| CC(CCc1ccccc1)NC(=O)COC(=O)C12CC3CC(CC(Br)(C3)C1)C2 (centres undefined) | -22.6% |
| Cc1cc([N+](=O)[O-])ccc1NCc1cccc([N+](=O)[O-])c1 | -12.8% |
| Cc1ccc(C(=O)Nc2cnc3sc(C)nn3c2=O)cc1 | -15.7% |
| CCC(COC(=O)Nc1cccc(C)c1)NC(=O)OCC(C)C (centres undefined) | -13.8% |
| CCOC(=O)C(C)Oc1ccc(C2NC(=O)NC(C)=C2C(=O)Nc2ccccc2C)cc1 (centres undefined) | -14.7% |
| CCOC(=O)CSc1cc(CSc2ccccc2)nc(-c2ccccc2)n1 | -14.2% |
| CC1(OC(=O)c2ccco2)C(=O)C=C2C=C(c3ccsc3)OC=C2C1=O (centres undefined) | u |

Next compounds:
| SMILES | HPGD block |
| --- | --- |
| CCCCNS(=O)(=O)c1ccc(NC(=O)C(Sc2ccccc2)c2ccccc2)cc1 (centres undefined) | -4.0% |
| COc1ccc(NC(=O)C(c2ccc(C)cc2)N(C)C(=O)c2ccc(=O)[nH]c2)cc1 (centres undefined) | -8.8% |
| Nc1ccc(C(=O)O)c(O)c1 (tested in a mixture with another compound) | -23.6% |
| O=C(Nc1ccc(Cl)cn1)C1CCCN1S(=O)(=O)c1ccccc1 (centres undefined) | -10.0% |
| CCN(CC)S(=O)(=O)c1cc(NC(=O)COc2ccc(C#N)cc2OC)ccc1C | 0.1% |
| CCCCn1c(=O)[nH]c(=O)c2c1nc(-c1ccc(C#N)cc1)n2C1CCCC1 | u |
| CCSc1nc(-c2ccc(OC)cc2)cc(-c2ccccc2)c1C#N | u |
| Cc1ccc(C(=O)N/C(=C\c2ccc(F)cc2)C(=O)NCc2ccncc2)cc1 | -6.3% |
| O=C1[C@H]2[C@H]3[C@H](O)[C@H](O)C/C(=N\OC[C@@H](O)COCc4ccco4)[C@@H]3CC[C@H]2C(=O)N1c1ccc(F)cc1F | -10.0% |
| CCOC(=O)CC1NC(=O)c2ccccc21 (centres undefined) | 0.1% |
| CC(=O)N1CN(CCCn2ccnc2)Cc2c1sc1c2CCCC1 | -4.0% |
| O=C(NCc1cccs1)c1cc(C2CC2)on1 | -5.7% |
| COc1ccc(CNc2nc(-c3ccccc3OC)nc3ccccc23)c(OC)c1 | -13.0% |
| CCOC(=O)c1c(NC(=O)C2C3C=CC(CC3)C2C(=O)O)sc(C)c1C (centres undefined) | -12.6% |
| CC(C)CNC(=S)NC1CCCC1 | -6.6% |

The results go on.
| SMILES | HPGD block |
| --- | --- |
| Cn1c(CC(=O)Nc2ccccc2)c(Sc2ccccc2)c2ccccc21 | 1.3% |
| O=C(CSc1nc(-c2ccccc2)c(-c2ccccc2)[nH]1)Nc1nccs1 | -13.0% |
| CCN(CC)S(=O)(=O)c1ccc(O)c(NC(=O)c2ccc(N3CCOCC3)c([N+](=O)[O-])c2)c1 | 31.6µM* |
| CC(C)C(NC(=O)C(Cc1ccc(O)cc1)NC(=O)C(NC(=O)C(F)(F)F)C(C)C)C(=O)O (centres undefined) | -12.7% |
| CN(C)c1nc(NCc2ccccc2)nc(SCC(=O)Nc2ccccc2)n1 | -25.2% |
| O=C(Nc1ccc(Cl)cn1)C1CCCN1S(=O)(=O)c1ccc(Cl)cc1 (centres undefined) | -10.1% |
| CC(=O)Nc1ccc(S(=O)(=O)NCCc2ccccc2)cc1 | -7.4% |
| CCCCNC(=S)NNC(=O)CCn1nc(C)c(Br)c1C | -13.2% |
| Cc1cc(C)c2nc(-c3ccccn3)cc(C(=O)Nc3cc(C)on3)c2c1 | u |
| O=C1NC(=O)c2c(NC(=O)C3CCCO3)cccc21 (centres undefined) | u |
| Cc1ccc(C(=O)NNC(=O)CSc2nnc(-c3ccncc3)n2C)cc1 | -0.9% |
| Cc1cccc(/C=C2\CCC(=C3SCCCS3)C2=O)c1 | -28.5% |
| O=C(c1ccco1)N1CCN(C(=O)C2CCCN(S(=O)(=O)c3cccc4nsnc34)C2)CC1 (centres undefined) | -10.3% |
| Cc1cc(C)n(S(=O)(=O)c2cc(C(=O)O)c(Cl)cc2Cl)n1 | 3.2% |
| CCC(CC)=NNC(=O)c1ccccc1OCc1ccc(F)cc1 | 1.1% |

More records:
| SMILES | HPGD block |
| --- | --- |
| O=C(Nc1ccc(C(F)(F)F)cc1Cl)c1ccc(Cn2cc(Br)cn2)o1 | -18.3% |
| Cc1ccc(Nc2cc(-n3nc(C)cc3C)ncn2)c(C)c1 | -12.1% |
| CC(C)NC(=O)c1cc(-c2ccc(Br)cc2)on1 | -25.4% |
| COc1cc([C@@H]2c3cc4c(cc3C(OC3OC5COC(C)OC5C(O)C3O)C3COC(=O)[C@@H]32)OCO4)cc(OC)c1O (some centres undefined) | -5.2% |
| C=CCNC(=O)NS(=O)(=O)c1ccc(C)cc1 | -10.4% |
| Cc1cc(C)n(C(=O)c2ccc(C)c(S(=O)(=O)N3CCCCC3)c2)n1 | -15.7% |
| O=C(Nn1c(C2CCCCC2)nc2ccccc2c1=O)c1ccc(Cl)c([N+](=O)[O-])c1 | -14.5% |
| C/C(=N/NC1=NCCN1)c1cn(C2=NCCN2)nc1C | -5.1% |

Compound activity as filed in PubChem BioAssay.

This is a subset; count on the stated rates, not on these rows.
